High-throughput results as filed in PubChem.
MT1-MMP act inh – inhibitors of human MT1-MMP activation; P50281; HT1080 RFP-PRO-GFP cells, GFP/RFP ratio fluorescence, overnight; percent of plate control window, DMSO zero; GFP/RFP ratio change, % at 20 µM; 360,000 tested, 0.061% active; AID 651647;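 active means GFP/RFP ratio change of at least 30% with cell ATP level not reduced by more than half and red fluorescence within 50% of control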; further: strong numbers were not always called active
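Assay system: HT1080 RFP-PRO-GFP cells. Benchmarks: DMSO vehicle wells and RFP-L50D-GFP reporter cell wells. Times: overnight cell settling, then overnight compound exposure, 37 °C, 5% CO2. Compound: 20 µM single dose, 1% DMSO. Read-out basis: GFP/RFP fluorescence ratio.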
HIV Env fusion – blocks HIV Env-driven cell-cell fusion; HeLa-JRFL Env/CEM21 cell fusion, luciferase; inhibition, % at 12.3 µM; 360,000 tested, 1.1% active;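 active means mean replicate inhibition score of at least 50 and every replicate individually at or above 50; inconclusive means only one of the two criteria met; inactive means mean below 50 and not all replicates reaching 50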;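 further: 0% = plate neutral controls and 100% = maraviroc near 300 nM; one replicate is shown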
Rce1 inhib – yeast Ras-converting enzyme inhibition. Q03530. yeast membranes, quenched prenylated peptide cleavage fluorescence. calls only. 290,000 tested, 0.27% active. AID 2563;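 active means fall in fluorescence gain of 50% or more versus controls, with final raw signal at or below 3038400; inconclusive means same 50% fall but final raw signal above 3038400; inactive means fall in fluorescence gain under 50%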;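 further: plate controls were neutral control wells for no effect and wells lacking membranes for full effect; tested at 10 µM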
PABP FP inh – PABP-poly(A) binding inhibition. 290,000 tested, 1% active. PABP-poly(A) RNA binding, fluorescence polarization. inhibition, % at 35 µM;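 active means 50% or more with normal probe brightness, or confirmed in later tests; inconclusive means above 50% with abnormal brightness, or retests that disagree; inactive means below 50% or failed in later tests; about a fifth of its hits are not listed in these tables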;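 further: calls also rest on retests at 20 µM and on dose response follow-up; controls were probe without protein and protein plus probe with vehicle; some compounds called inactive have numbers as strong as hits; many hits fall short of the cut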
Target sequence (P11940 whole entry, looked up): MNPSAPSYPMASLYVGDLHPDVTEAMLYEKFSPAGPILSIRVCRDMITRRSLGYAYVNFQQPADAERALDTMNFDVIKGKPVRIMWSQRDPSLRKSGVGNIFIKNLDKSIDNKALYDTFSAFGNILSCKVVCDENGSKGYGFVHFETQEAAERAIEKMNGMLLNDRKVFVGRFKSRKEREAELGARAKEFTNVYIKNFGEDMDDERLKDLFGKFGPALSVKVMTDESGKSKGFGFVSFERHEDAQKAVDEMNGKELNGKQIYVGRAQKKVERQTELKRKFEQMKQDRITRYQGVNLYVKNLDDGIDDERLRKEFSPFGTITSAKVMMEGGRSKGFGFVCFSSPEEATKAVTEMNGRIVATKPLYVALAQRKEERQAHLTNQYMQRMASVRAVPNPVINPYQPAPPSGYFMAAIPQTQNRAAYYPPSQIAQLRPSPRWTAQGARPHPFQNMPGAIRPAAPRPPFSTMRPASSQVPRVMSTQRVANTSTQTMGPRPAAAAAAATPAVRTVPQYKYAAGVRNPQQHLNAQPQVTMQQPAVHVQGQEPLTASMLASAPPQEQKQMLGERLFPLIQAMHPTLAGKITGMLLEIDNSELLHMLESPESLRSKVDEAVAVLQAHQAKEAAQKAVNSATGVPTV
UUG fidelity – alters start codon recognition fidelity in yeast | S. cerevisiae UUG-firefly luciferase reporter, luminescence/redox ratio | activity score, % at 18.7 µM | 350,000 tested, 0.13% active;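 active means replicate mean at a twofold rise or more, about +100% in these data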;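 further: firefly luciferase made from a UUG start codon reports start codon fidelity; reporter light over untreated wells divided by growth signal over untreated wells; some hits fall short of that in this replicate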
CSC inhib – cancer stem cell inhibition | cancer stem cell-like cells viability, luminescence | inhibition, % at 7.5 µM | 300,000 tested, 1.1% active | AID 2717;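 active means mean at 75% or more and at least half the replicates too; inconclusive means mean and replicates disagree; tested in HMLE shEcad cells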;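 further: 0% = median of negative and 100% = median of positive control wells; the first replicate is given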
eIF4H FP inh – inhibitors of RNA binding by human eIF4H. Q15056. eIF4H fluorescence polarization binding assay. inhibition, % at 35 µM. 290,000 tested, 0.94% active;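 active means 50% or more with normal probe brightness, or confirmed in later tests; inconclusive means above 50% with abnormal brightness, or retests that disagree; inactive means below 50% or failed in later tests; about a fifth of its hits are not listed in these tables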;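 further: calls also rest on retests at 20 µM and on dose response follow-up; 0% = protein and probe with vehicle and 100% = probe without protein; strong numbers were not always called active; many hits fall short of the cut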
MT1-MMP act inh RFP – second read-out of MT1-MMP act inh, no call of its own (marks repeat the call); RFP signal change, %; measured here: RFP expression control read;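 0 = vehicle wells; hits needed this value within 50% of zero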
* hit, by the source's call; i = inactive; ? = inconclusive; . = no result given; + = active, no number; & = joins results of further samples; [ ] = another dose, or the depositor's remark.

Values run as follows: MT1-MMP act inh, MT1-MMP act inh RFP, HIV Env fusion, Rce1 inhib, PABP FP inh, UUG fidelity, CSC inhib, eIF4H FP inh
1	Cc1ccc(Cl)cc1NC(=S)N(Cc1ccco1)C(C)c1cccs1 (stereo not given)
  -1, -1, 24, i, 5, -11, 27, -1
2	O=C(CSc1nnc(-c2cccs2)n1Cc1ccccc1)N1CCc2ccccc2C1
  1, -3, ., i, 3, 2, -16, -12
3	Cc1cc(C(=O)Nc2nc(C)c(C(=O)N(C)C)s2)ccc1[N+](=O)[O-]
  4, 1, -26, i, -3, ., 3, -14
4	Cc1cc(Cl)c2oc(C(=O)NCC(C)(C)N3CCOCC3)c(C)c2c1
  -2, -5, 6, i, 5, -9, 46, 3
5	OC(COc1ccc(Cl)cc1)CSc1ccccn1 (stereo not given)
  0, -2, -16, i, 6, 1, 5, 4
6	CCc1nc2ccc(C(=O)NCCc3c[nH]c4ccccc34)cn2c1N(C)Cc1ccc(N(C)C)cc1
  3, -3, 7, ., ., -5, ., .
7	Cc1cccc(C(=O)OCC(=O)NCCNC(=O)COC(=O)c2cccc(C)c2C)c1C
  -1, 4, 2, i, 33, -14, -2, 1
8	C[C@@H]1CN([C@H](C)CO)C(=O)CCCn2nncc2CO[C@H]1CN(C)CC1CC1
  0, 5, 11, ., ., 13&-15, ., .
9	COC(=O)C(CC(C)C)NC(=O)c1ccc([N+](=O)[O-])cc1 (stereo not given)
  0, 6, ., i, -9, 0, -4, -5
10	CN(C)S(=O)(=O)c1ccc(N2CCCC2)c(C(=O)Nc2nc(-c3ccc(F)cc3)cs2)c1
  -2, -4, -11, i, 0, -26, -4, 1
11	CCOC(=O)C1=C(COC(=O)c2ccc(OC)c(S(=O)(=O)N3CCOCC3)c2)NC(=O)NC1C (stereo not given)
  1, -4, 5, ., ., -7, ., .
12	COc1ccc(-c2csc(N3CCSCC3)n2)cc1
  -1, -5, -46, i, -5, -19, 10, -6
13	O=C(O)c1ccc(S(=O)(=O)Nc2ccc(O)c(Sc3nc4ccccc4s3)c2)cc1
  -1, 2, -7, i, -4, -4, 6, 30
14	Cc1ccc2ncnc(Nc3cccc(C(=O)O)c3)c2c1
  2, 5, 2, i, -4, ., -16, 3
15	CC(C)c1ccc(NC(=O)C2CC(=O)N(C3CCCC3)C2)cc1 (stereo not given)
  -1, -5, -11, i, 13, 8, 1, 5

Additional records.
Values run as follows: MT1-MMP act inh, MT1-MMP act inh RFP, HIV Env fusion, Rce1 inhib, PABP FP inh, UUG fidelity, CSC inhib, eIF4H FP inh
16	C/C(=N\O)C1(C)N(O)C(C)(C)C(c2ccc(F)cc2)=[N+]1[O-] (stereo not given)
  6, 1, ., i, 9, ., ., 0
17	Cc1csc(N2CCN(c3cc4nc(-c5ccncc5)[nH]c4cc3Cl)CC2)n1
  4, 2, -5, i, 11, 12, 4, -1
18	O=C(O)c1cccc(C(=O)c2cccc3ccccc23)c1
  -2, 3, -20, i, ., ., 5, .
19	O=C(Nc1ccccc1C(=O)OC1CCOC1=O)c1ccco1 (stereo not given)
  2, 2, -68, i, -2, -21, -18, 0
20	COc1ccc(C2CC(c3ccc(OC)cc3)n3nc(NC(=O)c4ccco4)nc3N2)cc1 (stereo not given)
  2, 4, ., i, -6, -26, 10, -9
21	Cn1c(=O)n(CC#N)c2ccccc21
  1, 7, -158, i, -3, -14, 1, -10
22	CC1=C(C)CC(C(=O)Nc2nc(-c3ccc(C)cc3C)c(C)s2)C(C(=O)O)C1 (stereo not given)
  -1, 3, 8, i, 5, -11, 3, 5
23	CCc1ccc(NC(=O)CCC(=O)c2ccc(C)cc2)cc1
  1, 5, -1, i, 10, 5, -11, 3
24	C=COCCNC(=O)Nc1ccc(Cl)cc1Cl
  0, 0, ., ., 4, -18, 4, -4
25	CCOc1ccc(OCCOCCN2CCc3ccccc3C2)cc1
  1, 4, 20, i, 4, -18, 31, 7
26	CC(=O)c1cccc(OCC(=O)Nc2cc(S(=O)(=O)N3CCOCC3)ccc2N2CCCC2)c1
  1, -1, -14, i, ., ., -3, .
27	Cc1ccc(NC(=O)C2C3/C=C\CCCCC32)cc1C (stereo not given)
  5, 3, ., i, -4, -10, ., -6
28	CN1CCC(N(C)C(=S)Nc2ccc(F)cc2)CC1
  -1, -1, -18, i, 2, -12, 1, 11
29	O=C(NCCN1CCOCC1)Nc1ccc(Cl)cc1Cl
  1, 2, -88, i, 4, -30, 5, -5
30	CCN(CC(=O)NCc1ccc(Cl)cc1)Cc1cc(=O)n2ccsc2n1
  -4, 6, 12, i, -6, ., 10, 6

More structures
Values run as follows: MT1-MMP act inh, MT1-MMP act inh RFP, HIV Env fusion, Rce1 inhib, PABP FP inh, UUG fidelity, CSC inhib, eIF4H FP inh
31	O=C(COc1ccc([N+](=O)[O-])cc1Cl)NCC1CCCO1 (stereo not given)
  0, 2, 3, i, 6, ., 9, 7
32	COc1ccc(N2C(=O)CC(C#N)=C2N)cc1
  -2, 3, 7, i, -2, ., -6, 2
33	Oc1c(C(c2ccccn2)N2CCC(Cc3ccccc3)CC2)cc(Cl)c2cccnc12 (stereo not given)
  ., ., -66, i, -15, ., ., 19
34	CC1CCCCN1CC(=O)NCc1ccc2c(c1)OCO2 (stereo not given)
  2, 0, -78, i, 5, -17, -19, 3
35	O=C(N/C(=C\c1cccc([N+](=O)[O-])c1)C(=O)N(CCO)CCO)c1ccco1
  -4, -3, 7, i, 0, ., -2, -5
36	Cc1cccc(C)c1N1CCN(c2ccc3nnc(C(F)(F)F)n3n2)CC1
  3, -4, ., i, 12, ., -7, 13
37	CCOc1ncccc1C(=O)NNC(=O)c1cccc(S(=O)(=O)N2CCOCC2)c1
  4, -2, -1, ., ., -8, 5, .
38	C[C@@H]1C=C(C(=O)N2CCN(Cc3ccccc3)CC2)O[C@H](OCc2ccc(CO)cc2)C1
  -2, -6, -4[16.7 µM], i, 13, -4&-19, 5, 5
39	COc1cc(C(=O)NC(C)c2ccccc2)ccc1OCC(=O)N1CCOCC1 (stereo not given)
  -1, 3, -4, ., ., -16, 8, .
40	CCc1nnc(NC(=O)CCC(=O)N2CCN(c3cc(C)ccc3C)CC2)s1
  3, 0, -4, i, 12, -15, 22, 12
41	Cc1csc(NC(=O)c2ccccc2O)n1
  1, 1, ., +, -6, -5, -1, 2
42	COc1ccc(CNc2cccc(F)c2)cc1Br
  7, 3, ., i, 18, 18, 17, 4
43	C=CCNC(=S)NNC(=O)c1csc(C)c1C
  -1, 1, 21, i, 6, 0, -3, -4
44	Cc1cccc2sc(N(CCCN(C)C)C(=O)COc3ccc(Cl)cc3)nc12
  6, 3, 9, i, -9, ., 7, -2
45	Cc1cc(NC(=O)c2cc(F)c(F)cc2Cl)no1
  1, 5, 1, i, 7, ., -8, 2

(more compounds)
Values run as follows: MT1-MMP act inh, MT1-MMP act inh RFP, HIV Env fusion, Rce1 inhib, PABP FP inh, UUG fidelity, CSC inhib, eIF4H FP inh
46	CCc1cccc(CC)c1NC(=O)c1cccc(NC(=O)c2ccccc2)c1
  -4, -6, -17, i, 3, 14, 1, 5
47	Fc1ccc2c(c1)/C(=N/Nc1ccccn1)CCS2
  -2, -2, -22, i, ?, ., 12, ?
48	CN(C)CCNC(=O)C(=O)NCC(c1ccc2c(c1)OCO2)N1CCN(c2ccc(F)cc2)CC1 (stereo not given)
  6, 5, -3, i, 0, -4, 0, 4
49	CCOC(=O)CCC(NC(=O)CCCCC(=O)NC(CCC(=O)OCC)C(=O)OCC)C(=O)OCC (stereo not given)
  2, 3, 2, i, 11, ., 9, 0
50	CC1CC(C)(C)CC2(C1)NC(=O)N(CC(=O)N1CCN(Cc3ccc(C#N)cc3)CC1)C2=O (stereo not given)
  6, -27, 40, ., ., -15, ., .
51	O=Cc1cccc(OC(=O)/C=C/c2ccco2)c1
  -2, 0, -28, i, 70*, -1, -2, 89*
52	O=C(COC(=O)c1cc(-c2cccc3ccccc23)nc2ccccc12)NC1CCS(=O)(=O)C1 (stereo not given)
  -13, 16, -25, i, 2, ., 2, ?
53	O=C(COC(=O)/C=C/c1cnc2ccccc2n1)NCC(F)(F)F
  -2, 2, ., i, 3, 11, -4, 5
54	Cc1cc(C)nc(SCc2nnc(SCC(N)=O)n2Cc2ccco2)n1
  4, 8, 6, i, -9, ., ., -1
55	CCOC(=O)COc1cc2oc(=O)cc(C)c2cc1[N+](=O)[O-]
  0, 0, -3, i, -2, ., -11, 1
56	CC(=O)Nc1ccc(S(=O)(=O)N(C)CC(=O)N2CCN(C(=O)c3ccco3)CC2)cc1
  -5, 2, -1, ., ., -20, -12, .
57	C[C@H]1NC(=O)[C@@]2(C)[C@@H](c3ccccc3)[C@H]3COc4ccccc4[C@H]3N2C1=O
  -2, 1, -12, ., ., 1, 4, .
58	Cc1nn(CCCC(=O)NCCc2ccc(Cl)cc2)c(=O)c2nn(-c3ccccc3)c(C)c12
  6, 1, 9, i, 0, -2, -27, -11
59	CCn1cc(C(=O)O)c(=O)c2cnc(N3CCN(C(=S)Nc4ccccc4Cl)CC3)nc21
  -4, -1, 22, i, -1, -23, 8, 6
60	Cc1ccc(C(=O)NCCCN2CCOCC2)c(C)c1
  1, -3, -18, i, -6, 2, -22, -13

The results go on.
Values run as follows: MT1-MMP act inh, MT1-MMP act inh RFP, HIV Env fusion, Rce1 inhib, PABP FP inh, UUG fidelity, CSC inhib, eIF4H FP inh
61	O=c1c2cccc(Cl)c2nc2n1Cc1ccccc1-2
  -3, -3, -10, i, -2, -3, -9, -10
62	OC(CNCCc1ccc(Cl)cc1Cl)COc1ccccc1 (stereo not given)
  2, 5, 12, i, 2, -12, 20, -2
63	COc1cc(C(=O)OCC(=O)c2c[nH]c3ccccc23)ccc1OCC(=O)N1CCOCC1
  5, 3, -15, i, -4, 12, -2, -1
64	O=C(c1ccco1)N1CCN(S(=O)(=O)c2ccc3c(c2)CCN3C(=O)C2CC2)CC1
  1, -4, 9, i, 5, -5, -6, 1
65	C1=CC2=NC34CCCCC3CC3=C(CCCC3)N4C2=CC1=NC1CCCCC1 (stereo not given)
  2, -2, ., i, ., 10, -4, .
66	C[C@@H]1CN([C@@H](C)CO)C(=O)Cc2cc(NS(=O)(=O)c3cn(C)cn3)ccc2O[C@@H]1CN(C)C(=O)Nc1ccccc1
  1, 4, 3, ., ., -4, 0, .
67	COC(=O)c1cc(N=C(N)N=C(N)N)cc(C(=O)OC)c1
  -2, -4, 9, i, 2, ., 2, 6
68	CCN(Cc1ccccc1)c1ccc(/C=N/NS(=O)(=O)c2ccc(C)c([N+](=O)[O-])c2)cc1
  -1, -11, 1, i, -3, ., 35, -16
69	O=C(O)/C=C\c1ccccc1Oc1ccc(F)cc1
  1, 2, -7, ., 0, -2, -1, -6
70	Cc1noc(C)c1COc1ccc(C(=O)NNC(=O)c2ccccc2F)cc1
  -6, -10, ., ., ., -3, 48, .
71	CN(C)NC(=O)c1cccc(Cl)c1
  2, 4, 4, i, 3, -8, -10, -9

Random draw from the library; 2.9% or so of the library scored in one or more.
